Calb FLC = affects C. albicans growth with fluconazole | C. albicans CaCi-2 (fluconazole-resistant clinical isolate) + fluconazole, Alamar Blue growth, 48 h | growth inhibition, % (no concentration beside the values) | actives 0.57% (n = 300,000) | AID 1979;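 active = most replicates above 75%; inconclusive = exactly half above 75%; inactive = most below 75%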;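 also: all wells also contain fluconazole at 8 µg/ml as a sub-toxic cotreatment; 0% = median of DMSO wells and 100% = median of geldanamycin control wells; wells of about 8 µL received 7.5 nL stock; the first replicate is given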
HNF4A DNA FP = change in binding of human HNF4 alpha to DNA; P41235; HNF4a-FITC DNA binding, fluorescence polarization, 1 h; activity change, % at 10 µM; actives 0.3% (n = 360,000); in the data active = activity change above about 30%, passing the limit was not always enough;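 also: controls were the assay level and a saturating level of protein; the project sought stronger binding though the title names inhibitors; some compounds called inactive have numbers as strong as hits; positive values seem to mean higher polarization but the record does not say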
Target sequence (P41235 whole entry, looked up): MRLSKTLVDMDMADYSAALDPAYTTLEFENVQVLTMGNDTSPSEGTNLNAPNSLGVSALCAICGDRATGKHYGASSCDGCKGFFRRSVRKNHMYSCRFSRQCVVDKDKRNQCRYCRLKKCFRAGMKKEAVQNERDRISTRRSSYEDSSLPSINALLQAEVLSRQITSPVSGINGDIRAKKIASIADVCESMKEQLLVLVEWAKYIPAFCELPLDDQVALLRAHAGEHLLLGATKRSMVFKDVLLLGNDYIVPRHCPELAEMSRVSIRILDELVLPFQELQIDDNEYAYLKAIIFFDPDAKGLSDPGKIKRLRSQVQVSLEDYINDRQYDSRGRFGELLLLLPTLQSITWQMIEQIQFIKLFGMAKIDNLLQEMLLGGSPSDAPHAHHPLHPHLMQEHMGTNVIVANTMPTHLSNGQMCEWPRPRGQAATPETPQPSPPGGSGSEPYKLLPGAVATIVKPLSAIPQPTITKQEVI
RanGTP-Imp inh = inhibitors of RanGTP-importin-beta interaction, primary screen, biochemical, FRET, CFP-Ran, YFP-importin-beta, homogeneous | inhibition, % (concentration not given with the values) | cell-free CFP-Ran/YFP-importin-beta FRET ratio | AID 2216 | actives 1.1% (n = 300,000);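 active = most replicates above 15%; inconclusive = exactly half above 15%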;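 also: 0% = DMSO wells and 100% = Ran loaded with GDP instead of GTP; wells of about 40 µL received 100 nL stock; the first replicate is given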
Vif A3G = inhibitors of Vif binding to APOBEC3G peptide, primary screen, biochemical, TR-FRET, GST-Vif 1-94, biotin-A3G peptide, dose response retest (AID 1117319); TR-FRET GST-Vif / biotin-A3G peptide binding; higher % means a stronger effect; test concentration not given here; strong numbers were not always called active; inhibition, %; hits with a dose series show IC50 in µM; actives 0.57% (n = 260,000);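 active = above the screen mean plus three standard deviations and confirmed in dose response; inconclusive = results disagree or hit not tested in dose response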;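 also: Vif residues 1-94 fused to GST binding biotinylated APOBEC3G peptide 110-148; 0% = full assay without inhibitor and 100% = GST in place of GST-Vif; retest series ran down from 100 µM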
LANA-H2A inh = blocks KSHV LANA binding to histone H2A/H2B; Q9QR71; cell-free LANA-H2A/H2B peptide, fluorescence polarization; inhibition, % (test concentration not listed); actives 0.6% (n = 320,000); AID 2629; in the data active = inhibition mostly above about 10%, no sharp cut-off; inactive = mostly below about 6.7%;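 also: stock transfer was 7.5 nL into about 10 µL; 0% = median of vehicle wells and 100% = median of positive control wells; one replicate is shown; the record names a cut of 25% in any replicate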
ALR inh = blocks human ALR sulfhydryl oxidase activity. P55789. purified ALR, DTT oxidation, H2O2 HRP-luminol luminescence. inhibition, % (test concentration not listed). actives 3.8% (n = 290,000). AID 485317;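 active = mean and each replicate at 75% or more; inconclusive = only one of the two met; inactive = neither met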;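 also: stock transfer was 7.5 nL into about 7.5 µL; 0% = neutral wells and 100% = wells with inactivated enzyme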
Target sequence (P55789 whole entry, looked up): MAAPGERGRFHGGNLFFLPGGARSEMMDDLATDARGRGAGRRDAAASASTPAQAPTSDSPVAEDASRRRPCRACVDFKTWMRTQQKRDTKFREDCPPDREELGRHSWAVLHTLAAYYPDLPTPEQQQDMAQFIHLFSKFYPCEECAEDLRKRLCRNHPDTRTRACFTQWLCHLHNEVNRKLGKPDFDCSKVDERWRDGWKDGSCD
Beta2AR agonist = human beta-2 adrenergic receptor agonism by FAP; AID 504454; Am2.2-beta2AR cells, FAP receptor internalization, flow cytometry; reference of the scale not given here; response, % (concentration not given with the values); actives 0.43% (n = 340,000);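 active = response above a set limit, near 3 SD of response in nonfluorescent compounds, cut at about 42% in these data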;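 also: stock transfer was 100 nL into about 11 µL; a reference agonist was the positive control; negative values mostly stem from fluorescent compounds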
Target sequence (P07550 whole entry, looked up): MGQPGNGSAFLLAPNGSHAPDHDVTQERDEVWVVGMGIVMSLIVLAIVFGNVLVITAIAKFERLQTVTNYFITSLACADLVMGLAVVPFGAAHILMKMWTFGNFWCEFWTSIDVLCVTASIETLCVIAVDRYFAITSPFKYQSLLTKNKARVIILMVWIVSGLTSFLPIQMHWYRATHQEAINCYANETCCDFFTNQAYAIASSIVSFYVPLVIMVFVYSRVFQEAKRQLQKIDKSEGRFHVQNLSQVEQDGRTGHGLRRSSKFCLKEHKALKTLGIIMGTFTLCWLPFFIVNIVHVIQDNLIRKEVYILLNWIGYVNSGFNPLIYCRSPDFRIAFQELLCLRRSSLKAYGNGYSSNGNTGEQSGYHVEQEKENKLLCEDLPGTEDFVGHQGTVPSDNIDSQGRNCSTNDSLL
An asterisk follows results filed as active; ? = inconclusive; / = no result given; & = joins results of further samples.

Below each SMILES: Calb FLC | HNF4A DNA FP | RanGTP-Imp inh | Vif A3G | LANA-H2A inh | ALR inh | Beta2AR agonist
1	N#Cc1cccc(-n2nnnc2-c2ccccn2)c1
 : 1 | 0.9 | 5.6 | 12% | 3.6 | / | 3
2	Cc1c(Br)c([N+](=O)[O-])nn1C(C)C(=O)NCc1cccnc1 (centres undefined)
 : -3 | -0.1 | 2.6 | 0% | 0.3 | -5 | 4
3	CCc1ccc(C(C)NC(=O)c2cc(C)oc2C)cc1 (centres undefined)
 : -25 | 6.5 | 0.7 | ? | 6.8 | 17 | 9
4	COc1cc(NC(=O)Cn2cnc(S(=O)(=O)N3CCCC3)c2)cc(OC)c1OC
 : -4 | -3.5 | 3.7 | 1% | -0.8 | -3 | -4
5	Cc1c(C)n(CCCN(C)C)c2ncnc(NC3CCCCC3)c12
 : 0 | 3.4 | -100 | / | 1.3 | 9 | -7
6	COCCCN1CN(Cc2ccccc2)CNC1=S
 : -2 | 0.3 | 2.1 | 4% | 3.7 | -3 | -1
7	CCC(C)NC(=O)Cc1c(OC)ccc2cc(Br)ccc12 (centres undefined)
 : 4 | 2.3 | 0.8 | -29% | 1.1 | -2 | -3
8	CCSc1nc(=O)n(-c2ccccc2)c(C)c1C(C)=S
 : 0 | -2.9 | 7.6 | 0% | -9.3 | / | 4
9	O=C(NNc1c(Cl)cc(Cl)cc1Cl)C1CCC1
 : 4 | 1.8 | 0.3 | 2% | -0.1 | 0 | 7
10	CC(C)C(=O)N1CCN(CCN=CC2=C(O)CC(c3ccco3)CC2=O)CC1 (centres undefined)
 : 3 | -0.6&-3.4 | 1.3 | 12%&-6% | 2.8 | -5 | -3&-4
11	CC(C)Cc1ccc(S(=O)(=O)Nc2ccccn2)cc1
 : 17 | 1.6 | 5.1 | ? | -4.1 | 3 | -8
12	O=C(NCCc1ccccc1)C1CCN(Cc2ccccc2F)CC1
 : -2 | -0.6 | -0.8 | / | 2.7 | / | 0
13	Cc1cccc(NC(=O)CSc2nnc(-c3ccccc3Br)o2)c1C
 : -7 | 0.4 | 0.5 | 0% | -6.7 | -12 | 14
14	Cc1cc(S(=O)(=O)N2CCCC(N(C)CCc3ccccn3)C2)c(C)cc1Cl (centres undefined)
 : -1 | 5.0 | 2.9 | / | / | -23 | -14
15	Cc1nnc(SCC(=O)N(CC(C)C)c2c(N)n(CC(C)C)c(=O)[nH]c2=O)n1-c1ccccc1
 : 16 | -0.8 | 0.6 | 11% | 2.2 | -18 | -4
16	COC(=O)c1sccc1N/N=C/c1ccc(OC)c(OC)c1OC
 : -15 | 0.8 | -0.2 | -3% | -3.2 | 14 | 13
17	COc1ccc2c(c1)cc1n2CCN2CCCN=C12
 : -17 | 4.1 | -0.9 | 11% | -4.6 | -10 | -7
18	Cc1cccc(OCc2nc(C#N)c(N3CC(C)CC(C)C3)o2)c1 (centres undefined)
 : 5 | 0.6 | -0.7 | 22% | 0.9 | / | -4
19	Cc1ccc(NC(=O)COC(=O)c2nn(C)cc2Cl)cc1
 : -4 | -0.3 | 0.6 | / | 6.1 | / | -2
20	CCOC(=O)Cn1c(C)cc(=O)c2ccccc21
 : -2 | 6.1 | -2.7 | -7% | -14 | -6 | 2
21	O=C1CC2(CCN(C(=O)c3ccc(Cl)cc3)CC2)Oc2ccccc21
 : 2 | -1.8 | -0.7 | / | -1.8 | -2 | -2
22	COc1c(OC(C)=O)c(=O)n2c3ccccc3c3ccnc1c32
 : -7 | 1.0 | 4.3 | / | -0.4 | -1 | -1
23	O=C(O)c1[nH]c2ccc(Cl)cc2c1CC(=O)N1CCN(C(=O)c2ccco2)CC1
 : -1 | -7.9 | 5.5 | >100µM* | 7.2 | 6 | -3
24	CCc1nc(SCC(=O)NC2CCCC2)c2oc3ccccc3c2n1
 : -2 | 0.9 | -2.0 | / | -0.2 | -3 | -13
25	Cc1ccc(-c2nc3[nH]c(=O)cc(NC(=O)C(C)C)n3n2)cc1
 : 32 | 1.5 | 6.4 | -5% | 3.6 | 0 | 7
26	O=C(/C=N/O)NCc1ccncc1
 : -17 | -1.4 | -0.3 | 3% | -2.6 | 0 | 11
27	COc1cccc(C(=O)N2CCC(n3nccc3NC(=O)C3CCOC3)CC2)c1 (centres undefined)
 : -4 | 0.9 | 4.5 | / | 2.5 | 7 | 0
28	O=C(CCS(=O)(=O)c1ccc(Cl)cc1)OCC(=O)N1CCCCC1
 : 0 | 1.0 | 3.9 | -3% | 0.5 | -5 | 6
29	N#Cc1c(C#N)c(-c2ccccc2)n(-c2ccccc2)c1N
 : 0 | -1.3 | 1.1 | 18% | -2.7 | 5 | 1
30	CCCCn1c(N)c(N(CC(C)C)C(=O)c2oc3c(Cl)cccc3c2C)c(=O)[nH]c1=O
 : -12 | -1.2 | 2.0 | -3% | 0.0 | -18 | 7

Following part
Below each SMILES: Calb FLC | HNF4A DNA FP | RanGTP-Imp inh | Vif A3G | LANA-H2A inh | ALR inh | Beta2AR agonist
31	CCN(CC)C(=O)CN(C)S(=O)(=O)c1cccc2nsnc12
 : 10 | 28 | -1.9 | 3% | -1.0 | 1 | 3
32	COc1ccc(C(=O)C(C)OC(=O)CCN2C(=O)C3CC=CCC3C2=O)cc1 (centres undefined)
 : / | -3.6 | / | -7% | -0.3 | 1 | 7
33	CCOC(=O)N1CC(=O)Nc2ccc(Br)cc2C1c1ccccc1 (centres undefined)
 : -15 | 2.1 | 0.7 | -11% | 106* | -8 | 6
34	Cc1cc(C)c(NC(=O)c2ccc3nccnc3c2)c(C)c1
 : / | -2.7 | / | -1% | / | / | -5
35	Cc1ccc(SCCNC(=O)c2ccc(CN3CCOCC3)cc2)cc1
 : -5 | 3.0 | -10 | -14% | -0.9 | -22 | 1
36	CCOc1ccccc1C(C(=O)NC1CCCCC1)N(C(=O)c1csnn1)C1CC1 (centres undefined)
 : 7 | -4.6 | 3.1 | / | 2.1 | -5 | -3
37	O=C(CCN1C(=O)/C(=C/c2ccco2)SC1=S)Nc1ccc(O)cc1C(=O)O
 : 1 | -38 | -5.3 | 20% | 1.6 | 40 | -2
38	CCCCOc1ccc(OCCCC)c2c1NC1(N2)C(=O)N(C(C)=O)c2ccccc21
 : 0 | 5.1 | ? | -11% | 0.5 | -2 | 7
39	CC1(c2nnc(-c3ccc(Cl)cc3)o2)CC(c2cccc(Cl)c2)=NO1 (centres undefined)
 : -6 | -8.7 | 3.7 | / | -6.7 | / | -6
40	O=C(Cn1cccc1)NC1CCCCCC1
 : -5 | -1.9 | -2.8 | 22% | 0.0 | 3 | 3
41	COc1cc(CN2CCN(Cc3ccco3)CC2)cc(OC)c1
 : 2 | 0.2 | 0.1 | -4% | -1.9 | -8 | 1
42	O=C(CCc1nc2ccccc2c(=O)[nH]1)Nc1cccc(S(=O)(=O)N2CCCCC2)c1
 : -2 | -4.5 | ? | -8% | 2.4 | 1 | 16
43	CN1CCN(C(=S)c2cn(Cc3ccc(F)cc3)c3ccccc23)CC1
 : 121* | -1.2 | 4.6 | 2% | -1.6 | 4 | -7
44	c1ccc(-c2ccnc3nc(N4CCN(c5ccccc5)CC4)nn23)cc1
 : -6 | 0.1 | -2.6 | -2% | 2.1 | 25 | -5
45	Cc1cccc(-n2c(SCc3ccc(C#N)cc3)nnc2-c2c[nH]c3ccccc23)c1
 : 5 | -0.9 | -0.3 | / | -1.5 | -12 | 0
46	COCCNC(=O)Cn1cnc2c(cnn2-c2ccc(OC)cc2)c1=O
 : 3 | -1.9 | 2.4 | -2% | 0.7 | -1 | -1
47	CN(C(=O)COC(=O)/C=C/c1ccc2c(c1)OCO2)c1c(N)n(Cc2ccccc2)c(=O)[nH]c1=O
 : -7 | 2.5 | 0.8 | -7% | -2.0 | -4 | 0
48	O=C(NCc1cccs1)c1cc(S(=O)(=O)N2CCOCC2)c(Cl)cc1Cl
 : 6 | -1.5 | 0.8 | / | 4.0 | 9 | -6
49	CCCc1cc(=O)oc2cc(OCc3cccc(OC)c3)c(Cl)cc12
 : -18 | -1.1 | -0.5 | / | 0.7 | -9 | -3
50	Cc1ccc(NC(=O)CN(C)C(=O)CSc2ccccc2F)cc1
 : / | -0.4 | / | -3% | 4.5 | / | 2
51	Cc1cc(C)n(-c2ccc(C(=O)NC3=NCCS3)cc2)n1
 : -3 | 1.5 | ? | -1% | 1.5 | -6 | -5
52	CCCCNC(=O)c1cccnc1SCC(=O)Nc1ccccc1OC
 : -3 | 1.3 | -0.6 | 21% | 3.6 | -2 | 1
53	COc1cc(/C=N/NC(=O)c2cnccn2)cc(OC)c1OC
 : -10 | 1.9 | 4.5 | 11% | / | / | -2
54	CC(C)N(C(=O)Cn1c(SCC(=O)NCc2ccc3c(c2)OCO3)nc2ccccc21)C(C)C
 : 2 | -0.3 | 4.9 | 5% | -4.5 | -13 | 5
55	CC(OC(=O)c1ccc(Cl)cc1)C(=O)NCC1CCCCC1 (centres undefined)
 : / | 1.5 | / | -1% | -1.0 | -4 | -6
56	CC1CCN(C(C(=O)Nc2ccc3c(c2)OCO3)c2ccccc2)CC1 (centres undefined)
 : -10 | -1.0 | -12 | 5% | -0.6 | -5 | -1
57	COc1ccc(C(C2C(=O)CC(C)(C)CC2=O)C2C(=O)CC(C)(C)CC2=O)cc1COCC(F)(F)F
 : 3 | -5.9 | 0.9 | 5% | 2.3 | 99* | -7
58	N#CCCN1CCN(C(=S)c2ccc(-c3ccc(Cl)cc3)o2)CC1
 : 4 | -0.5 | 2.7 | -8% | -2.6 | 43 | -3
59	O=C(OCn1nnc2ccccc2c1=O)C1CCCCC1
 : -1 | 1.7 | -2.9 | 3% | 0.5 | -4 | -2
60	O=C(CN1C(=O)/C(=C/c2ccc(C(F)(F)F)cc2)Sc2ccccc21)NCCCN1CCOCC1
 : -10 | -0.4 | -4.3 | / | 3.6 | -51 | 6
61	O=C(Cn1cc(C(F)(F)F)ccc1=O)N/N=C/c1cccc(Cl)c1Cl
 : -7 | -2.1 | 0.0 | -2% | 5.5 | -1 | -2
62	Cc1cccc(NC(=O)CSC(N)=O)c1C
 : 92* | 0.0 | 4.8 | -3% | 2.0 | 99* | 6
63	COc1ccccc1C(=O)OCC(=O)Nc1cccc(S(=O)(=O)NC2=NCCCCC2)c1
 : / | 0.5 | / | -3% | 2.2 | 15 | 6

Among those listed so far, these contain a furan ring, fused or not.
Below each SMILES: Calb FLC | HNF4A DNA FP | RanGTP-Imp inh | Vif A3G | LANA-H2A inh | ALR inh | Beta2AR agonist
3	CCc1ccc(C(C)NC(=O)c2cc(C)oc2C)cc1 (centres undefined)
 : -25 | 6.5 | 0.7 | ? | 6.8 | 17 | 9
10	CC(C)C(=O)N1CCN(CCN=CC2=C(O)CC(c3ccco3)CC2=O)CC1 (centres undefined)
 : 3 | -0.6&-3.4 | 1.3 | 12%&-6% | 2.8 | -5 | -3&-4
23	O=C(O)c1[nH]c2ccc(Cl)cc2c1CC(=O)N1CCN(C(=O)c2ccco2)CC1
 : -1 | -7.9 | 5.5 | >100µM* | 7.2 | 6 | -3
24	CCc1nc(SCC(=O)NC2CCCC2)c2oc3ccccc3c2n1
 : -2 | 0.9 | -2.0 | / | -0.2 | -3 | -13
30	CCCCn1c(N)c(N(CC(C)C)C(=O)c2oc3c(Cl)cccc3c2C)c(=O)[nH]c1=O
 : -12 | -1.2 | 2.0 | -3% | 0.0 | -18 | 7
37	O=C(CCN1C(=O)/C(=C/c2ccco2)SC1=S)Nc1ccc(O)cc1C(=O)O
 : 1 | -38 | -5.3 | 20% | 1.6 | 40 | -2
41	COc1cc(CN2CCN(Cc3ccco3)CC2)cc(OC)c1
 : 2 | 0.2 | 0.1 | -4% | -1.9 | -8 | 1
58	N#CCCN1CCN(C(=S)c2ccc(-c3ccc(Cl)cc3)o2)CC1
 : 4 | -0.5 | 2.7 | -8% | -2.6 | 43 | -3

Screening data as filed in PubChem.

Random draw from the library, and some 6.3% of all compounds hit somewhere here.
